Compound activity deposited in PubChem by National Center for Advancing Translational Sciences (NCATS).
Resorufin fluor = qHTS Assay for Spectroscopic Profiling in Resorufin Spectral Region | 59,000 compounds, 0.04% hits | Compound fluorescence, resorufin region 547/598 nm, buffer; active compounds read high | max dye-equivalent concentration, M; active = above 10 nM dye equivalent; inconclusive = 1 to 10 nM; inactive = 1 nM or less; a few of its hits are not listed in these tables; also: highest value over a series up to 38 µM
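Dye-equivalent concentration values derive from comparing each well's 547/598 nm fluorescence against resorufin standards included on every plate. Incubation was 15 min at room temperature in 100 mM Tris, pH 8.0.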
A647 autofl = qHTS Assay for Spectroscopic Profiling in A647 Spectral Region. Compound fluorescence, A647 channel (570/671 nm), Tris buffer. AID 592, 2007. 59,000 tested, under 10 active. max dye-equivalent concentration, M; active means above 1 µM dye equivalent; inconclusive means 0.1 to 1 µM; inactive means 0.1 µM or less;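 also: values scaled relative to a standard on each plate; highest value over a series up to 38 µM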
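Fluorescence read (570 nm ex, 671 nm em) after 15 min RT incubation of compounds in 100 mM Tris buffer, pH 8.0; values expressed as dye-equivalent concentration against a six-point A647 standard series on each plate.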
AID923 = qHTS Assay for Allosteric/Competitive Inhibitors of Caspase-1: Spectroscopic Profiling in AFC Spectral Region. compound fluorescence, AFC spectral region (405/520 nm); almost no hit is shown here. Potency, µM (top dose mostly 57.5 µM), for the others: top-dose fluorescence increase, actives largely listed as activators. 75,000 compounds, 1.1% hits. AID 923, 2007; active = well fitted activation curve with a large enough effect; inconclusive = small, poorly fitted or top-dose-only effect;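 also: potency is read from the fitted curve at half-maximal effect; 0% is about no effect; scaled to a free AFC standard on each plate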
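Baseline compound fluorescence (AFC region, 405 nm ex/520 nm em) taken from the intercept of kinetic reads with 50 nM caspase-1 and 5 uM Ac-WEHD-AFC; normalized to an on-plate AFC standard curve; compounds titrated up to 57 uM.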
TSHR agonist = qHTS Assay for Agonists of the Thyroid Stimulating Hormone Receptor; HEK293-CNG-TSHR cells (CNG channel as cAMP sensor), membrane potential dye, cAMP; 73,000 compounds, 0.48% hits; Thyrotropin receptor (Homo sapiens), P16473; Potency, µM (doses to about 57.1 µM), for inactives: top-dose activation, hits mostly activators; AID 926, 2007; active = well fitted activation curve of enough size with the parental cells flat; inconclusive = any curve in the parental cells; inactive = parental cells flat and receptor cells flat or falling; also: potency is read from the fitted curve at half-maximal effect; % of control where 0% means no effect; weak receptor curves with flat parental cells got no call and are not listed
Target sequence (P16473 whole entry, looked up): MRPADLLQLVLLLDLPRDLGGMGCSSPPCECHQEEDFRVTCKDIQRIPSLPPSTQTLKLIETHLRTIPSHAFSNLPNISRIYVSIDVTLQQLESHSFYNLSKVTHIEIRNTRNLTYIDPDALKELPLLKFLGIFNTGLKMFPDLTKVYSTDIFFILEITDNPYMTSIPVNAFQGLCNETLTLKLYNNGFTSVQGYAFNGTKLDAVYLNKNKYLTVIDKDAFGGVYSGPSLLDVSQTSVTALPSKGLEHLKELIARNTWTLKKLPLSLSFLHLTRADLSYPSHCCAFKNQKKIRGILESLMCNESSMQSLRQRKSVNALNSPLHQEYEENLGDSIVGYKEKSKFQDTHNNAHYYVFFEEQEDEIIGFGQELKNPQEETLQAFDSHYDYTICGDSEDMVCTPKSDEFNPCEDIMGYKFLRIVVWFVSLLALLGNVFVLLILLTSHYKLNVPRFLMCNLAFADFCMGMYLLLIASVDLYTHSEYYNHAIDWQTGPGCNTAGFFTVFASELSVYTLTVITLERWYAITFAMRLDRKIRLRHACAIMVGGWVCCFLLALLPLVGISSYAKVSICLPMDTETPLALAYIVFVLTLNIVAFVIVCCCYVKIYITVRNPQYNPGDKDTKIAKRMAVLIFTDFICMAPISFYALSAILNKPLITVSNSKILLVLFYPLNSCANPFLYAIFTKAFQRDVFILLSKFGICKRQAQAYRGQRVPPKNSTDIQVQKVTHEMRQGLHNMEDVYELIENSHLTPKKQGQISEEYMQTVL
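HEK 293 cells stably expressing TSHR and a modified CNG channel, with CNG-only parental cells as counterscreen, were preloaded 60 min at room temperature with membrane potential dye containing 100 uM RO 20-1724. Compound exposure was 30 min, and depolarization was read as fluorescence at 590 nm.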
A488 autofl = qHTS Assay for Spectroscopic Profiling in A488 Spectral Region; compound autofluorescence, A488 spectral region, dye equivalency; active compounds read high; max dye equivalency, M; 59,000 compounds, 0.1% hits; AID 591, 2007; active = above 10 nM dye equivalent; inconclusive = 1 to 10 nM; inactive = 1 nM or less; about half of its hits are not listed in these tables;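 also: highest value over a series up to 38 µM; compound alone in buffer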
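Readout is A488 dye-equivalent concentration, calibrated by a per-plate six-point Alexa 488 series. Compounds in 100 mM Tris buffer pH 8.0 were incubated 15 min at room temperature. Plates were imaged using 480 nm excitation/540 nm emission filters.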
The depositor's hits bear a star; & = joins results of further samples; [ ] = another dose, or the depositor's remark. These rows are one share of the data; rates above refer to the full screens.

How did c1cncc(CNc2ncncc2-c2ccc3c(c2)OCO3)c1 do in these assays?
Resorufin fluor: inactive; A647 autofl: 1e-09; AID923: -1.9%; TSHR agonist: inconclusive; A488 autofl: inactive

How did COC(=O)c1ccc2c(c1)NC(=O)C1CCCN21 (stereo not drawn) do in these assays?
AID923: 3.6%; TSHR agonist: 0%

What do the screens show for `Cc1cc(C)n2nc(Cc3ccccc3)nc2n1`?
Resorufin fluor: inactive; A647 autofl: 4e-08; AID923: 0.6%; A488 autofl: inactive

How did O=C(O)C[C@@H](C(=O)O)C1c2ccccc2-c2ccccc21 do in these assays?
Resorufin fluor: inactive; A647 autofl: 1e-09; AID923: 1.0%[11.5 µM]; TSHR agonist: inconclusive; A488 autofl: inactive

Results for Cc1occc1C(=O)Nc1ccc2c(c1)CCC2 ?
Resorufin fluor: inactive; A647 autofl: 4.2e-08; AID923: -1.2%; TSHR agonist: -8%; A488 autofl: inactive

What do the screens show for `CCN1C(C)=C(C(=O)OC)C(c2ccccc2)N2C(=O)[C@@]3(C(=O)OC)O[C@@]12C1C(=O)N(c2ccccc2)C(=O)C13` (stereo partly drawn)?
AID923: 2.1%[11.5 µM]; TSHR agonist: -1%[11.4 µM]

How did Cc1ccc(SCc2nc(-c3ccncc3)no2)cc1 do in these assays?
Resorufin fluor: inactive; A647 autofl: 3.8e-08; AID923: -0.2%; TSHR agonist: inconclusive; A488 autofl: inactive

Results for Cc1ccc(S(=O)(=O)N2c3ccc(S(N)(=O)=O)cc3CC2C)cc1 (stereo not drawn) ?
Resorufin fluor: inactive; A647 autofl: 3.6e-09; AID923: -0.2%; TSHR agonist: 8%; A488 autofl: inactive

How did COc1ccc(-c2ccc(=O)n(CC(=O)N3CCN(c4ccccc4OC)CC3)n2)cc1 do in these assays?
AID923: 3.6%; TSHR agonist: 7%

What do the screens show for `COc1ccc(C2CC(=O)c3c([nH]c(C(=O)OC(C)C)c3C)C2)cc1OC` (stereo not drawn)?
Resorufin fluor: inactive; A647 autofl: 4e-08; AID923: -2.3%; TSHR agonist: 17%; A488 autofl: inactive

By substructure, the compounds so far with four or more nitrogen atoms.
How did c1cncc(CNc2ncncc2-c2ccc3c(c2)OCO3)c1 do in these assays?
Resorufin fluor: inactive; A647 autofl: 1e-09; AID923: -1.9%; TSHR agonist: inconclusive; A488 autofl: inactive

What do the screens show for `Cc1cc(C)n2nc(Cc3ccccc3)nc2n1`?
Resorufin fluor: inactive; A647 autofl: 4e-08; AID923: 0.6%; A488 autofl: inactive

How did COc1ccc(-c2ccc(=O)n(CC(=O)N3CCN(c4ccccc4OC)CC3)n2)cc1 do in these assays?
AID923: 3.6%; TSHR agonist: 7%

Additional records follow:
Results for COc1ccc(-c2noc(-c3ccccc3C(=O)Nc3cccc(OC)c3)n2)cc1 ?
Resorufin fluor: inactive; A647 autofl: 1e-09; AID923: -0.5%; TSHR agonist: inconclusive; A488 autofl: inactive

What do the screens show for `COc1ccc(CN2CN(C(C)C)CSC2=S)cc1`?
Resorufin fluor: inactive; A647 autofl: 1e-09; AID923: 0.2%; TSHR agonist: 26%; A488 autofl: inactive

How did CN1CC=C2C(C#N)=C(N)C(C#N)(C#N)[C@H](c3cccc(Cl)c3)C2C1 (stereo partly drawn) do in these assays?
Resorufin fluor: inactive; A647 autofl: 4.8e-09; A488 autofl: inconclusive

What do the screens show for `CCc1nc2c(c(=O)[nH]1)C1(CCCC1)Cc1ccccc1-2`?
AID923: 1.3%; TSHR agonist: -14%

What do the screens show for `Cc1ccc(S(=O)(=O)NC(=O)NN2CCCCCC2)cc1`?
Resorufin fluor: inactive; A647 autofl: 3.7e-08&2.5e-09&2.7e-09; AID923: -5.1%; TSHR agonist: -6%[25.6 µM]; A488 autofl: inactive

Results for COc1ccc(C2CC(c3ccccc3)Nc3nc(NC(=O)c4cccs4)nn32)cc1 (stereo not drawn) ?
Resorufin fluor: inactive; A647 autofl: 1e-09; AID923: 3.1%; TSHR agonist: 18%; A488 autofl: inactive

Results for CCN(CC)S(=O)(=O)c1ccc(C(=O)NC2=C(C(=O)OC)SCC2)cc1 ?
Resorufin fluor: inactive; A647 autofl: 1.8e-08; AID923: 6.3%; TSHR agonist: 6%; A488 autofl: inactive

Results for O=C(Cn1cnc2c(nnn2-c2ccccc2)c1=O)NCC1CCCO1 (stereo not drawn) ?
AID923: 1.6%; TSHR agonist: inconclusive

How did O=C(NCC1COc2ccccc2O1)C1CCCN(S(=O)(=O)c2cccc3nsnc23)C1 (stereo not drawn) do in these assays?
Resorufin fluor: inactive; A647 autofl: 2.8e-08; AID923: -2.3%; TSHR agonist: 11%[11.4 µM]; A488 autofl: inactive

Results for COc1cccc(OCC(=O)NC2CCCCC2)c1 ?
Resorufin fluor: inactive; A647 autofl: 1.2e-09; AID923: 0.7%; TSHR agonist: 1%; A488 autofl: inactive

What do the screens show for `CCCCN(Cc1cc2cc(OC)ccc2[nH]c1=O)C(=O)c1ccccn1`?
Resorufin fluor: inactive; A647 autofl: 1e-09; AID923: -0.4%; TSHR agonist: 0%; A488 autofl: inactive

How did CCN(CC(=O)NCc1cccs1)c1ccc(S(=O)(=O)N2CCOCC2)cn1 do in these assays?
Resorufin fluor: inactive; A647 autofl: 1e-09; AID923: -0.5%; TSHR agonist: 8%; A488 autofl: inactive

Results for Cc1c(C(=O)O)nc(/C=C\C(=O)O)[nH]c1=O ?
Resorufin fluor: inactive; A647 autofl: 2.8e-08; AID923: -2.2%[11.5 µM]; TSHR agonist: 3%[11.4 µM]; A488 autofl: inactive

What do the screens show for `CCCCC[C@H](O)/C=C\[C@@H]1[C@H](O)CC(=O)[C@@H]1CCCCCCC(=O)O`?
Resorufin fluor: inactive; A647 autofl: 1.9e-08; AID923: -0.9%[25.7 µM]; TSHR agonist: inconclusive; A488 autofl: inactive

Results for CCN(CC)CC(=O)c1ccc(-c2ccccc2)cc1 ?
Resorufin fluor: inactive; A647 autofl: 1e-09; AID923: -2.1%; TSHR agonist: 11%; A488 autofl: inactive

Results for COc1ccc(OC)c(S(=O)(=O)n2nnc3ccccc32)c1 ?
AID923: -1.3%; TSHR agonist: 3%

What do the screens show for `CCOc1ccccc1N(C(=O)c1ccco1)C(C(=O)NC1CCCC1)c1cccnc1` (stereo not drawn)?
Resorufin fluor: inactive; A647 autofl: 1.9e-09; AID923: 0.6%; TSHR agonist: inconclusive; A488 autofl: inactive

How did c1ccc(CCn2nnnc2CN2CCc3ccccc32)cc1 do in these assays?
Resorufin fluor: inactive; A647 autofl: 1.9e-09; AID923: 0.4%; TSHR agonist: 2%; A488 autofl: inactive

Results for CC1(C)Oc2ccc(C(=O)NC3CCCC3)cc2N(CC(=O)NC2CCCC2)C1=O ?
Resorufin fluor: inactive; A647 autofl: 1e-09; AID923: 4.4%; TSHR agonist: 2%; A488 autofl: inactive

Results for CCOc1cc2[nH]c(=O)n(CCC(=O)N3CCN(c4ccccc4OC)CC3)c(=O)c2cc1OCC ?
Resorufin fluor: inactive; A647 autofl: 2.7e-09; AID923: 0.1%; TSHR agonist: 1%; A488 autofl: inactive

Results for CCN(CCCNC(=O)CN(C)S(=O)(=O)c1ccc2c(c1)CCC(=O)N2)c1cccc(C)c1 ?
Resorufin fluor: inactive; A647 autofl: 3.7e-08; AID923: -1.1%; TSHR agonist: -1%[11.4 µM]; A488 autofl: inactive

What do the screens show for `CCc1nc(N)c(C#N)c(-c2cccn2C)c1C`?
Resorufin fluor: inactive; A647 autofl: 1e-09; AID923: -0.6%; TSHR agonist: 6%; A488 autofl: inactive

What do the screens show for `Cc1c(C(=O)NCCCN2CCCC2=O)oc2ccc(S(=O)(=O)N3CCOCC3)cc12`?
Resorufin fluor: inactive; A647 autofl: 2.7e-08; AID923: -0.8%; TSHR agonist: -5%[11.4 µM]; A488 autofl: inactive

How did Cc1ccc2nsnc2c1S(=O)(=O)N1CCCC1 do in these assays?
Resorufin fluor: inactive; A647 autofl: 1.9e-08; AID923: 0.1%; TSHR agonist: 1%; A488 autofl: inactive

How did COc1c(S(=O)(=O)N2CCCC2)ccc(Cl)c1Cl do in these assays?
Resorufin fluor: inactive; A647 autofl: 1.3e-08; AID923: -1.4%; TSHR agonist: 11%; A488 autofl: inactive

How did O=C(CCCCn1c(=O)[nH]c2ccccc2c1=O)NCCC1=CCCCC1 do in these assays?
Resorufin fluor: inactive; A647 autofl: 1e-09; AID923: -0.2%; TSHR agonist: -5%; A488 autofl: inactive

What do the screens show for `COc1ccc(S(=O)(=O)Cc2ccc(C(=O)N3CCN(c4ncccn4)CC3)o2)cc1`?
AID923: 3.7%; TSHR agonist: 1%

What do the screens show for `CC(C)CO/N=C1/C[C@@H](O)[C@@H](O)[C@@H]2[C@@H]3C(=O)N(C(C)(C)C)C(=O)[C@H]3CC[C@H]12`?
AID923: 1.7%[11.5 µM]; TSHR agonist: 2%[11.4 µM]

Results for O=C(CSc1nc2nc(-c3cccs3)cc(C(F)(F)F)c2c(=O)[nH]1)NCc1ccco1 ?
Resorufin fluor: inactive; A647 autofl: 1e-09; AID923: 19%; A488 autofl: inactive

Results for CC(C)Cn1c(SCc2nnc(-c3cccs3)o2)nc(O)cc1=O ?
Resorufin fluor: inactive; A647 autofl: 4.4e-09; AID923: -1.0%; TSHR agonist: 2%; A488 autofl: inactive

How did O=C(c1cc(C(F)(F)F)cc(C(F)(F)F)c1)N1CCC[C@@]2(CCN(Cc3ccccc3)C2)C1 do in these assays?
Resorufin fluor: inactive; A647 autofl: 1e-09; AID923: 1.4%; TSHR agonist: inconclusive; A488 autofl: inactive

How did CCOC(=O)C1=C2N(C)c3ccccc3N2CCC1=O do in these assays?
AID923: 6.8%; TSHR agonist: -2%

Results for Cc1ccc2cc(-c3noc(C4CCCCC4)n3)c(=O)[nH]c2c1 ?
AID923: 2.0%; TSHR agonist: 2%

What do the screens show for `O=C(c1cc(C2CC2)on1)N1CCN(c2ccc(F)cc2)CC1`?
AID923: 3.3%; TSHR agonist: inconclusive

Results for COc1ccc(OC)c(N(CC(=O)NCc2ccccn2)S(C)(=O)=O)c1 ?
AID923: 0.3%; TSHR agonist: 9%

How did O=C(CCSc1ccccc1)NCC1CCCO1 (stereo not drawn) do in these assays?
Resorufin fluor: inactive; A647 autofl: 1.3e-08; AID923: 0.4%; TSHR agonist: 0%; A488 autofl: inactive

Results for COCCn1nnnc1C(c1ccc(OC)c(OC)c1)N1CCc2ccccc21 (stereo not drawn) ?
Resorufin fluor: inactive; A647 autofl: 1e-09; AID923: -0.9%; TSHR agonist: inconclusive; A488 autofl: inactive

How did COc1cc(C)c2occ(/C(C)=N\O)c2c1 do in these assays?
AID923: 0.2%; TSHR agonist: 26%

How did O=S(=O)(c1cccc(-n2cnnn2)c1)N1CCOCC1 do in these assays?
Resorufin fluor: inactive; A647 autofl: 1.3e-09; AID923: -0.1%; TSHR agonist: 2%; A488 autofl: inactive

How did CCn1c2ccccc2c2nnc(SCN3C(=O)c4ccccc4C3=O)nc21 do in these assays?
AID923: 0.8%; TSHR agonist: 10%[11.4 µM]

What do the screens show for `O=C(C1CCCN(S(=O)(=O)c2cccs2)C1)N1CCC(N2CCCCC2)CC1` (stereo not drawn)?
AID923: 1.8%; TSHR agonist: 3%

How did O=C(COc1ccc2c(c1)CCC2)N1CCc2ccccc21 do in these assays?
Resorufin fluor: inactive; A647 autofl: 1.6e-08; AID923: 0.6%; TSHR agonist: inconclusive; A488 autofl: inactive

What do the screens show for `CC(C)(C)N1C(=O)c2ccc(C(=O)O)cc2C1=O`?
Resorufin fluor: inactive; A647 autofl: 8.2e-09; AID923: -0.6%; TSHR agonist: -1%; A488 autofl: inactive
